High-throughput results from PubChem BioAssay.
Rango dissoc inh = prevents RanGTP from dissociating the Rango-importin beta complex | O95149+P62826 | Biochemical FRET Rango-importin beta, RanGTP-induced dissociation | Potency, µM (highest dose often 46.1 µM), for inactives: at the top dose activity change, negative = inhibition | hit rate 0.071% among 340,000; active means falling FRET ratio curve, often poorly fitted, with flat reads before Ran was added; inconclusive means other falling curves, or compound fluorescence or quenching; inactive means flat or rising ratio curve;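 note: potency is the fitted concentration of half-maximal effect; % of control where 0% means no effect; nearly all actives have a fitted effect of over 45% in size; -100% = wells without RanGTP and RCC1; the record marks most hits as doubtful in a second field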
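Recombinant Rango FRET biosensor (EYFP–snurportin 1 IBB–cerulean CFP10) at 0.1 uM premixed with 0.25 uM importin beta in PBS, 1 mM DTT, 0.02% Tween-20, 0.1% BSA. Compound added 5 min; RanGTP-RCC1 (0.6 uM Ran, 2 mM GTP, 0.2 uM RCC1) then triggers release, read at 45 min.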
Rango-impB inh = prevents formation of the Rango-importin beta complex; Q14974; Potency, µM (titrated, usually from 92.2 µM), inactives show at the top dose inhibition of complex formation; Rango CFP/YFP FRET sensor + importin beta, 45 min; AID 540263; hit rate 0.031% among 340,000; active = rising FRET ratio curve, often small or poorly fitted; inconclusive = mostly compound fluorescence or quenching in the first reads; inactive = flat curves in all reads;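 note: potency is the fitted concentration of half-maximal effect; 0% = DMSO wells and 100% = buffer wells lacking importin beta; nearly all actives have a fitted effect of over 15% in size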
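FRET biosensor (snurportin 1 IBB flanked by EYFP and cerulean), 50 nM, with compound 5 min, then 0.125 microM importin beta in PBS, 1 mM DTT, 0.02% Tween-20, 0.1% BSA. CFP/YFP ratio read after 45 min at room temperature; pre-read flags interference.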
miR-21 FLuc = raises the signal of a miR-21 reporter; HeLa miR-21 FLuc reporter, luciferase, 48 h; AID 2288; Potency, µM (series often up to 38.3 µM), for the others: at the top dose reporter change, positive = more light; 340,000 tested, under 10 active; active = well fitted rising curve with a large enough effect; inconclusive = small, poorly fitted or top-dose-only effect; inactive = no such curve, though single readings can be large or run the other way;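 note: % of control where 0% means no effect; miR-21 action dims this reporter so a rising signal means less miR-21 action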
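Using DMEM plus 10% FBS, HeLa miR-21-FLuc cells are incubated with test compounds (final up to about 40uM) for 48 hours; firefly luciferase signal is then imaged following reagent-mediated lysis.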
GLA inh pH 4.5 = inhibitors of human alpha-galactosidase A at pH 4.5; P06280; purified enzyme, 4-MU-alpha-Gal fluorescence, pH 4.5; activity change, negative = inhibition, % at 105 µM; 230,000 tested, under 10 active; AID 1467; inconclusive = small, poorly fitted or top-dose-only inhibition, or a rising curve; inactive = flat fitted curve, though single readings scatter; no compound was filed as active;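 note: 0% = full activity with enzyme and -100% = basal without enzyme; dose as in the result columns while the protocol names 77 µM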
Target sequence (P06280 whole entry, looked up): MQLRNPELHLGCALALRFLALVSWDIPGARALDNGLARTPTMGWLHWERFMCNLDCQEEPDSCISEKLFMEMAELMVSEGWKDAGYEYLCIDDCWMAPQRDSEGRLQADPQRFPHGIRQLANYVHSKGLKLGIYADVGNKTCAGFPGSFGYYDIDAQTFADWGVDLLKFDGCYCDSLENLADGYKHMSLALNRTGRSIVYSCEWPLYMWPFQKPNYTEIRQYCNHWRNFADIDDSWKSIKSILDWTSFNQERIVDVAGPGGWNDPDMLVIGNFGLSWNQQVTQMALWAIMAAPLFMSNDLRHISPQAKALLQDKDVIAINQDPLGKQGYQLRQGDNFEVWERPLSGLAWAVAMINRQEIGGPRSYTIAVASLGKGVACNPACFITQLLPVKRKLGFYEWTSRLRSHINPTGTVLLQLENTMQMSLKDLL
* marks the source's active call; other numbers are inactive results; ? = inconclusive; / = no result given; & = joins results of further samples; [ ] = dose if it differs, or a comment. These rows are one share of the data. The share of hits here may be higher or lower than overall.

canonical_smiles	Rango dissoc inh	Rango-impB inh	GLA inh pH 4.5	miR-21 FLuc
O=C(c1ccccc1)N1CCN(C(=S)NCCc2ccccc2)CC1	6%	3.1%	2	-5%
COc1ccc(NC(=O)c2coc(C)c2)cc1	17%	-1.4%	/	-47%
Cc1ccc(C(=O)N/C(=C\c2cccs2)C(=O)NCc2ccncc2)cc1	1%	9.7%	-14	0%
COc1ccc(C(O)CNc2ccc(C)cc2)cc1 (stereo unspecified)	-2%	-2.2%	1	-7%
O=C(NC(Cc1c[nH]c2ccccc12)C(=O)O)/C(=C/c1ccc(F)cc1)NC(=O)c1ccccc1 (stereo unspecified)	-6%	-3.8%	-2	2%
S=c1[nH]cc(Cc2ccccc2)s1	0%	3.6%	3	0%
O=C(O)CC1(CC(=O)Nc2ccc3sccc3c2)CCCCC1	-12%	-0.2%	3	3%
CC(=O)Nc1c2c(nn1-c1ccc(C)cc1)CS(=O)(=O)C2	0%	0.4%	/	-2%
COc1cc(/C=C/C(=O)O)cc(S(=O)(=O)NCc2ccco2)c1OC	21%	-5.6%	-3	2%
COc1ccc(CCNC(=O)c2c([S-])n(-c3ccc(C)cc3)c3cccc[n+]23)cc1	-5%	-0.6%	8	-14%
COc1cccc(CNC(=O)CC2C(=O)NCCN2CCCc2ccccc2)c1 (stereo unspecified)	-2%	2.1%	/	0%
NCCc1nnc(SCc2ccc(F)cc2)o1	9%	1.2%	-3	-5%
CCc1cccc(CC)c1-n1c(-c2cccnc2)n[nH]c1=S	4%	-2.1%	7	-5%
COc1ccc(C2c3c(ccc4ccccc34)Oc3ncn4nc(CO/N=C/c5ccccc5)nc4c32)cc1 (stereo unspecified)	-7%	-3.6%	9	0%
CCOc1ccc(C2C(C(=O)c3ccco3)=C(O)C(=O)N2CCCn2ccnc2)cc1OC (stereo unspecified)	-10%	-1.2%	/	0%
C/C(=N\NC(=O)CNc1cccc(C)c1)c1ccc(Br)s1	-5%	3.2%	1	-9%
CCn1cc(C(=O)N[C@H](C(=O)NCCCO)C(C)C)c(=O)c2cc3c(cc21)OCO3	3%	-0.6%	/	-2%
Cc1ccc(NC(=O)CN2C(=O)/C(=C\c3cccs3)SC2=S)cc1	4%	-3.8%	1	-4%
O=C(CNC(=O)c1ccc(S(=O)(=O)N2CCCC2)cc1)N/N=C/c1ccccc1Cl	-2%	-0.6%	-2	-4%
COC(=O)/C(=C/c1ccco1)NC(=O)c1ccco1	26%	-3.0%	4	-10%
COc1ccc(C(=O)C(OC(=O)c2ccc(C)c(NC(C)=O)c2)c2ccccc2)cc1 (stereo unspecified)	10%	-2.4%	-2	-14%
O=C(NCC1CCCO1)c1ccc2c(c1)ncn2-c1cccc(F)c1 (stereo unspecified)	25%	2.6%	/	-24%
CS(=O)(=O)N(Cc1ccccc1Cl)c1ccc(C(=O)NCc2cccnc2)cc1	-11%	0.8%	0	27%
O=c1c(Cl)c(N2CCOCC2)cnn1-c1ncc(C(F)(F)F)cc1Cl	7%	-2.6%	-23	-6%
CCCN(CCC)C(=O)c1cc(-c2ccc3c(c2)OCO3)nc2ccccc12	-13%	3.3%	-11	20%
C[n+]1cc(-c2ccccc2)oc1-c1ccccc1	-3%	0.0%	/	-13%
O=C1c2cccc3cccc(c23)C(=O)N1CC1CCCO1 (stereo unspecified)	-1%	1.7%	4	-46%
CCN(CC)C(=O)C1CCCN(Cc2ccc3c(c2)OCO3)C1 (stereo unspecified)	-10%	0.6%	-18	-8%
CCc1nnc(NC(=O)CCN2C(=O)c3ccccc3S2(=O)=O)s1	-12%	0.0%	6	0%
Cc1cc(NC(=O)Cc2cn3ccsc3n2)n(-c2ccccc2)n1	-8%	9.0%	3	-1%

Full records from above. Order of screens: Rango dissoc inh, Rango-impB inh, GLA inh pH 4.5, miR-21 FLuc
CS(=O)(=O)N(Cc1ccccc1Cl)c1ccc(C(=O)NCc2cccnc2)cc1 across the screens: -11%, 0.8%, 0, 27%
O=C(CNC(=O)c1ccc(S(=O)(=O)N2CCCC2)cc1)N/N=C/c1ccccc1Cl across the screens: -2%, -0.6%, -2, -4%
COc1ccc(CCNC(=O)c2c([S-])n(-c3ccc(C)cc3)c3cccc[n+]23)cc1 across the screens: -5%, -0.6%, 8, -14%

(cont.)
canonical_smiles	Rango dissoc inh	Rango-impB inh	GLA inh pH 4.5	miR-21 FLuc
CCc1ccccc1N(CC)C(=O)C1CCN(c2ncnc3c2nc2n3CCCCC2)CC1	-7%	-0.4%	/	25%&11%
CC1(C)C[C@H](O)[C@]2(CO)[C@H](O)C[C@]3(C)C(=CCC4[C@@]5(C)CC[C@H](O)C(C)(C)C5CC[C@]43C)[C@@H]2C1 (stereo partly specified)	-3%	0.1%	/	/
CCc1ccc(C(=O)N/N=C/c2ccncc2)s1	-9%	3.0%	/	-34%
CCCCN1C(=O)C(=O)N(CC(=O)Nc2ccccc2C(=O)OCC)C1=O	-4%	2.7%	/	14%
CCCCNC(=O)NC1CCCC1	4%	1.3%	6	-1%
COc1ccc(CC(=O)N/N=C(\C)CC(=O)Nc2ccc(N(C)C)cc2)cc1	-3%	-0.1%	/	-6%
COc1ccc(N(C)C(=O)CCS(=O)(=O)c2cccc3nsnc23)cc1	-2%	-4.3%	/	-1%&-4%
C#CCOCCOCCOCCNc1nc(N2CCN(C(=O)Cn3cc(CCCCN)nn3)CC2)nc(N2CCN(C(=O)[C@H](Cc3ccc(O)cc3)n3cc(CCO)nn3)CC2)n1	-2%	-0.2%	/	/
CCOC(=O)CC[C@H](NC(=O)Cn1cnc(C(=O)Nc2ccc(C)c(C)c2)n1)C(=O)OCC	15%	0.2%	/	/
COc1ccc([N+](=O)[O-])cc1NC(=O)CSCc1cc(C)cc(C)c1	8%	0.9%	-4	-2%
Cc1cccc(Cn2ccc(NC(=O)c3ccc4c(c3)OCO4)n2)c1	1%	8.6%	-4	-9%
Cc1ccc(CNC(=O)COc2ccc(S(=O)(=O)N3CCOCC3)cc2)cc1	23%	-2.1%	/	/
Cc1ccc2nc(-c3cccnc3SCC(=O)N3c4ccccc4CC3C)[nH]c2c1 (stereo unspecified)	7%	-1.1%	-22	-27%
COc1ccc(CN2CCN(C(=O)Cn3c(=O)oc4cc(Cl)ccc43)CC2)c(OC)c1OC	6%	0.0%	/	15%
CCOc1ccccc1NC(=O)c1ccccc1-c1nc(-c2ccccc2OC)no1	-29%	-2.0%	-6	13%
CCOC(=O)NC(=O)CSc1cc(C)c2cc(C)cc(C)c2n1	0%	3.2%	-12	-3%
COCCCNc1nc2c(-c3ccc(Cl)cc3)nnn2c2ccccc12	4%	-1.6%	6	-11%
CC(C)N(Cc1ccccc1)C(=O)CN1C(=O)COc2ccc(S(=O)(=O)N3CCCCCC3)cc21	-1%	1.6%	/	9%&17%
COc1ccc(S(=O)(=O)N2CCN(C(=S)NC3CCCCC3)CC2)cc1	1%	2.7%	-1	0%
Cc1c(Br)c([N+](=O)[O-])nn1CCCC(=O)N1CCN(c2ccccc2)CC1	-1%	0.1%	3	-13%
Cc1cc(C)c2[nH]c(O)c(N=NC3=NC(=O)CS3)c2c1	-2%	-2.0%	-4	-18%
CC(C(=O)C12CC3CC(CC(C3)C1)C2)N1CCOCC1 (stereo unspecified)	-9%	0.4%	/	-1%
COc1ccc2ccc(C(C)(C(C)=O)C(=O)OC(C)C)cc2c1 (stereo unspecified)	6%	-3.5%	/	/
CN1CCC(N(C)C(=O)COc2ccccc2-c2ccccc2)CC1	-4%	-0.6%	2	-9%
CC1(C)Cc2c(sc(NC(=O)C(=O)NCC3CCCO3)c2C(=O)O)CO1 (stereo unspecified)	6%	1.2%	/	-4%
CCCN1Cc2cccc(C(=O)N3CCN(c4ccc(OC)cc4)CC3)c2C1=O	-5%	1.1%	-3	-3%
CC(C)(C)N1C(=O)c2ccc(C(=O)NCc3ccco3)cc2C1=O	-19%	0.4%	2	-8%
COc1ccc(C(=O)OCC(=O)NC2CCCCCCC2)cc1OC	10%	1.1%	/	/
COc1ccc2c(c1)C(C)=CC(C)(C)N2S(=O)(=O)c1ccc(C)cc1	3%	1.0%	-5	25%
O=C1C[C@@H]2c3c(cccc3CN1Cc1ccc(Br)cc1)C[C@@H](O)[C@H]2O	-11%	-0.7%	/	/
COc1cc2c(cc1OC)C(C)N(C(=O)c1cccc([N+](=O)[O-])c1)CC2 (stereo unspecified)	-3%	5.0%	1	22%
O=C(CSc1nc2ccccc2n1CC(=O)N1CCCCC1)N1CCCCC1	21%	-2.9%	10	2%
CC(C)CNC(=O)/C(C#N)=C1\N=C(NC(=O)c2ccco2)c2ccccc21	?	?	/	-27%
Fc1ccc(CN2CC[C@H]3C=CCc4cccc(c43)C2)cc1	9%	-4.1%	/	/
CCC1=C(OC(=O)N(CC)CC)N2C(=O)OC(=NCc3ccccc3)[C@]2(C)[C@H]2C1=CC[C@H]1C(=O)N(CC)C(=O)[C@H]12	-4%	0.4%	-7&-24	-6%
O=C1OCC(CO)(CO)N=C1NNc1ccccc1[N+](=O)[O-]	0%	-0.3%	-2	-60%
CC(=O)Nc1ccc(NC2CCCCC2NS(=O)(=O)c2ccccc2)cc1 (stereo unspecified)	8%	4.7%	/	2%
CN(C)c1nc(N)nc(CSc2nnnn2-c2cccc3ccccc23)n1	5%	0.3%	0	5%
CC1Cc2ccccc2N1C(=O)COC(=O)Cn1cnc2ccccc2c1=O (stereo unspecified)	1%	-1.0%	-1	-10%
COc1ccccc1CC(NC(C)=O)C(=O)NC1CCN(S(=O)(=O)c2ccccc2)CC1 (stereo unspecified)	-5%	2.7%	/	1%
CC(=O)Nc1cccc(-c2nc3ccccc3[nH]2)c1	-2%	-0.1%	10[21.1 µM]	-15%
CCOc1ccc2nc(COC(=O)c3ccncc3)c(C(=O)c3ccccc3)[n+]([O-])c2c1	1%	-1.3%	-6	-50%
O=C(NCc1ccccc1)c1ccc2c(c1)C(=O)N(CC1CCCO1)C2=O (stereo unspecified)	1%	-6.0%	12	2%
Fc1ccc(N2CCN(c3nnnn3-c3ccccc3)CC2)cc1	2%	3.7%	-4	-15%
CCN1C/C(=C\c2cc(OC)c(OC)c(OC)c2)C2=NN(c3ccccc3)C(c3cc(OC)c(OC)c(OC)c3)C2C1 (stereo unspecified)	?	-0.2%	/	/
CCN(CC)S(=O)(=O)c1ccc(N2CC(C(=O)NCc3ccc4c(c3)OCO4)CC2=O)cc1 (stereo unspecified)	4%	-3.0%	/	/
CC1CCN(C(=O)Cn2cnc3c2c(=O)n(C)c(=O)n3C)c2ccccc2S1 (stereo unspecified)	-11%	2.5%	/	14%
Cc1ccc(N2C(=O)CC(Sc3cccs3)C2=O)cc1 (stereo unspecified)	-6%	1.7%	2	3%
Cc1ccc(OCCOCCN2CCN(C)CC2)c([N+](=O)[O-])c1	-12%	-0.1%	2	-3%
CSc1ccc(CN(C)C(=O)c2cc3ccccc3o2)cc1	3%	0.5%	/	-34%
CCOC(=O)n1c(=O)n(Cc2ccc(OC)cc2)c2ccccc21	2%	-0.8%	/	14%
O=C(NCc1cccs1)c1ccccc1	-10%	-0.6%	-3	-10%
COc1ccc(S(=O)(=O)Cc2ccc(C(=O)N3CCN(c4cc(Cl)ccc4C)CC3)o2)cc1	29%	1.2%	-7	-1%
